gsp agonist – qHTS for Agonist of gsp, the Etiologic Mutation Responsible for Fibrous Dysplasia/McCune-Albright Syndrome: qHTS | gsp mutant cells, cAMP HTRF, 30 min; control for the full effect not named in the record | Potency, µM (top dose mostly 76.9 µM), without a hit: top-dose activation (cAMP increase), most hits filed as activators | 340,000 compounds, 0.13% hits | AID 624287, 2012; active = well fitted activation curve with a large enough effect; inconclusive = small, poorly fitted or top-dose-only effect, or another doubt; inactive = no such curve, though single readings can be large or run the other way; cell line not stated here;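 also: phosphodiesterase inhibitor Ro 20-1724 added with compounds to block cAMP breakdown; potency is read from the fitted curve at half-maximal effect; nearly all actives have a fitted effect of over 60% in size; about a fifth of the inactives were tested at one dose only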
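Cells in DMEM/10% FBS with G418 were pretreated with compounds in DMSO plus […] (300 uM stock) for 30 min at 37C. cAMP was measured by HTRF (cAMP-d2 plus anti-cAMP antibody-K) after 30 min at room temperature.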
Sfp inh – qHTS Assay for Inhibitors of Bacillus subtilis Sfp phosphopantetheinyl transferase (PPTase). 4'-phosphopantetheinyl transferase ffp (Bacillus subtilis), Q9F4F7. Potency, µM, without a hit: max response, negative = inhibition, usual class: inhibitors. Biochemical Sfp PPTase activity, qHTS. 310,000 compounds, 3.5% hits; active = well fitted inhibition curve with a large enough effect; inconclusive = small, poorly fitted or top-dose-only effect, or another doubt; inactive = no such curve, though single readings can be large or run the other way;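 also: the enzyme is Sfp with the accession as filed and its product quenches rhodamine fluorescence; potency is read from the fitted curve at half-maximal effect; 0% = enzyme reaction without inhibitor and -100% = no enzyme wells; top concentration of the series not given in the record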
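After 15 min at room temperature with compound, 15 nM Sfp received 5 uM rhodamine-CoA plus 12.5 uM BHQ-2-ybbR (50 mM Hepes pH 7.6, 10 mM MgCl2). Rate came from the fluorescence difference over 30 min, ex 525/em 598 nm.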
D2 ag – Beta-Arrestin HTS for Positive Allosteric Modulators of the Human D2 Dopamine Receptor: Agonists; DiscoveRx PathHunter D2 beta-arrestin, luminescence, 90 min; 100% = 57 uM dopamine signal; activation, % (no concentration beside the values); D(2) dopamine receptor (Homo sapiens), P14416; 360,000 compounds, 0.084% hits; in the data active = activation above about 40%; inconclusive = about 15% to 40%; inactive = below about 15%; also: compound concentration not given in the record; the text of the record calls up to 30% inactive
Target sequence (P14416 whole entry, looked up): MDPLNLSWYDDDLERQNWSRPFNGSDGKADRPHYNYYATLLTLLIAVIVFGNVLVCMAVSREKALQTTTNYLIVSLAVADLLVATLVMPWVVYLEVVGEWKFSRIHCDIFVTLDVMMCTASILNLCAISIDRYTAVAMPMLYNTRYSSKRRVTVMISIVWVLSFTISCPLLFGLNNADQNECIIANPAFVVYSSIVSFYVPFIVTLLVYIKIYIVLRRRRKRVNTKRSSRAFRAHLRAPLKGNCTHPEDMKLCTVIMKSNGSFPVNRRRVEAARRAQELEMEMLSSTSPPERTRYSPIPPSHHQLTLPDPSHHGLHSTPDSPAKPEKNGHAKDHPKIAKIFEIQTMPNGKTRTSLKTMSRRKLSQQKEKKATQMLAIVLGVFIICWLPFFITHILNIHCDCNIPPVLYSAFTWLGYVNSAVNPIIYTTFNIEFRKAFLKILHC
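DiscoveRx PathHunter D2 beta-arrestin cells (2,100/well) attached overnight, then compound-stimulated 90 min at 37 C in HBSS/10 mM HEPES/0.1% Tween-20 buffer; beta-galactosidase complementation read by luminescence after 1 h at ambient temperature. Dopamine 57 uM final (EC100) as control.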
PINK1 modulator – A Quantitative High throughput Screen to Identify Chemical Modulators of PINK1 Expression | PINK1 immunofluorescence, high-content cytometry, 24 h | Potency, µM (doses to about 76.6 µM), inactives show top-dose activation (PINK1 increase), usual class: activators | 410,000 compounds, 0.2% hits | AID 624263, 2012; active = well fitted activation curve with a large enough effect; inconclusive = small, poorly fitted or top-dose-only effect; inactive = flat fitted curve, though single readings scatter; cell line not stated here;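 also: potency is read from the fitted curve at half-maximal effect; % of control where 0% means no effect; nearly all actives have a fitted effect of over 65% in size; a mitochondrial uncoupler was the plate control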
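Fluorescence from anti-PINK1 antibody, together with nuclear and cell stains, was scanned on a laser-scanning cytometer. Before staining, stable-line cells were incubated 24 hours with compounds at 5 concentrations; primary antibody 12 h at 10 degrees C.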
gsp antag – qHTS for Antagonists of gsp, the Etiologic Mutation Responsible for Fibrous Dysplasia/McCune-Albright Syndrome: qHTS. AID 624288, 2012. 340,000 compounds, 0.4% hits. Potency, µM (highest dose often 76.9 µM), for inactives: at the highest dose activity change, negative = inhibition, hits mostly inhibitors. gsp-mutant cells, cAMP HTRF, 30 min; control for the full effect not named in the record; active = falling curve of any shape with a large fitted effect; inconclusive = falling curve, mostly with a smaller effect; inactive = flat or rising curve; cell line not stated here;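 also: intracellular cAMP measured with PDE inhibitor Ro 20-1724 present during compound exposure; potency is read from the fitted curve at half-maximal effect; % is scaled to controls: 0 for no effect and ±100 for the full control effect; nearly all actives have a fitted effect of over 65% in size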
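Cells, 2000/well, grown 16–24 h in DMEM 10% FBS with 0.5 mg/ml G418, then compounds plus […] (300 uM addition stock), 30 min at 37C. cAMP read by HTRF (cAMP-d2 and anti-cAMP antibody-K in lysis buffer) after 30 min RT.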
ClpP mod – qHTS Assay for Activators of ClpP | ATP-dependent Clp protease proteolytic subunit (Bacillus subtilis (strain 168)), P80244 | purified B. subtilis ClpP, FRET peptide cleavage, 20 min | Potency, µM (highest dose often 57.5 µM), without a hit: top-dose activity change, negative = active | 340,000 compounds, 1.9% hits | AID 651965, 2013; active = well fitted falling curve with a large enough effect; inconclusive = small, poorly fitted or top-dose-only effect; inactive = no such curve, though single readings can be large or run the other way; also: potency is read from the fitted curve at half-maximal effect; the source files actives as falling curves though it sought activators and does not explain the sign; nearly all actives have a fitted effect of over 65% in size; many hits overshoot -100%
Target sequence (P80244 whole entry, looked up): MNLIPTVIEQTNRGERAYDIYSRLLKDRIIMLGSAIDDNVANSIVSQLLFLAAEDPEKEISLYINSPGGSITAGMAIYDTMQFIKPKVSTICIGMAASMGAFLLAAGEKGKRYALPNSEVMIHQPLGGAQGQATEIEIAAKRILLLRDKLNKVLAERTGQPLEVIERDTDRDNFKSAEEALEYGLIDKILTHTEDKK
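FRET quenching reversal measured ClpP activation: 10 microg/mL B. subtilis ClpP at pH 8 with the FRET-FV decapeptide, read at 430 nm after 320 nm excitation. The 20-min minus 0-min signal was scaled between DMSO/no-enzyme wells and ADEP (5.8 microM final).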
Menin-MLL FL inh – qHTS Assay for Inhibitors Targeting the Menin-MLL Interaction in MLL Related Leukemias: Competition With Fluorescein Labeled MLL-derived Peptide; FP activity change, % at 61.4 µM; Fluorescence polarization, fluorescein-MLL peptide displacement from menin; 290,000 tested, under 10 active; inconclusive = falling polarisation curve, or a change in total fluorescence; inactive = total fluorescence flat and polarisation flat or rising; no compound was filed as active; the % refers to the polarisation; negative = inhibition;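 also: % of control where 0% means no effect; inhibitors lower the polarisation; unlabelled MLL peptide was the positive control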
An asterisk follows results filed as active; ? = inconclusive; · = not tested or not shown; [ ] = another dose, or the depositor's remark.

SMILES	gsp agonist	Sfp inh	D2 ag	PINK1 modulator	gsp antag	ClpP mod	Menin-MLL FL inh
CCOc1cc2c3c(c1)C1(C(=O)N3C(C)(C)C=C2C)C(C#N)=C(N)Oc2cc(O)ccc21 (stereo unspecified)	-15%	10%	-1.0	-33%[inhibitor][38.3 µM]	-7%	-19%	0.4
CC(C)(C)NC(=O)c1ccncc1	-6%	7%	-0.4	-1.0%	4%	0.5%	1.1
COc1cc(OC)cc(-c2c(-c3ccc(F)cc3)c3cc(-c4ccc(OC)nc4)ccc3n2C)c1	10%	·	-1.1	10%	1%	4.3%	·
CCC(=O)Nc1nnc(CSCc2ccc(F)cc2)s1	0%	-7%	-4.8	3.9%	3%	-2.4%	1.0
Cn1c(SCC(=O)N2CCCCCC2)nc2c([nH]c3ccccc32)c1=O	9%	14%	0.3	1.8%	3%	?	4.4
O=C(NNS(=O)(=O)c1ccccc1)c1cnn(-c2ccccc2)c1-n1cccc1	?	11%	-0.6	3.2%	-9%	0.0%	1.5
O=c1[nH][nH]cc1C=Nc1ccc(Cl)cc1	-6%[15.4 µM]	1%	2.1	-1.3%	7%	·	1.9
NNC(=S)Nc1ccc(S(=O)(=O)N2CCOCC2)cc1	-11%	-10%	7.6	-0.7%	-3%	-7.5%	4.0
Cc1nn(C)c(C)c1S(=O)(=O)N1CCCC(C(=O)N2CCN(c3ccccc3)CC2)C1 (stereo unspecified)	30%	12%	-3.0	1.9%	-5%	1.2%	-2.3
COc1ccc(C(C(=O)NC2CCCC2)N(C(=O)c2ccco2)c2cc3c(cc2C(C)=O)OCO3)cc1OC (stereo unspecified)	2%[15.4 µM]	-15%	-1.5	3.0%	2%	-26%	-1.4
CCN(CC)CCN1C(=O)c2cccc3cc(N)cc(c23)C1=O	1%[15.4 µM]	-11%	-3.4	-2.0%	?	-4.2%	?
COc1ccc(N2CCN(c3nc4cc(C)ccc4cc3C=O)CC2)cc1	19%[15.4 µM]	-5%	-3.4	2.9%	-12%	·	-3.2
O=S(=O)(c1cc(-c2nnc(-c3ccc(Br)cc3)o2)ccc1Br)N1CCCCCC1	1%	4%	-1.0	4.3%	0%	-12%	0.4
Nc1ccc(-c2nc3cc([N+](=O)[O-])ccc3o2)cc1	0%	7%	-2.6	2.2%	4%	-14%	-3.8
Cn1c(=O)nc2n(Cc3ccccc3)c3ccccc3cc-2c1=O	11%[15.4 µM]	-27%	-5.6	-1.2%	?	-1.1%	2.8
Cc1cc(Br)ccc1OCCN1CC(C)OC(C)C1 (stereo unspecified)	4%[15.4 µM]	-28%	0.6	6.1%	4%	-5.7%	0.3
CCOc1ccc2oc(-c3ccccc3)c(C(=O)O)c2c1	-4%	16%	-5.6	-0.4%	-20%	-4.7%	-0.4
CCc1cccc(C)c1NC(=O)COC(=O)CNS(=O)(=O)/C=C/c1ccccc1	-5%[15.4 µM]	-7%	0.8	4.0%	5%	0.9%	1.7
O=C(NCC(=O)N(c1ccccc1F)C(C(=O)NC1CCCC1)c1cccnc1)c1ccco1 (stereo unspecified)	-23%	13%	0.7	1.6%	7%	·	-0.7
COc1ccc(-c2cc(C(=O)NCCCn3ccnc3)no2)cc1OC	2%	15%	-2.0	-1.2%	-1%	-4.0%	2.1
O=C(COc1ccc2cc(-c3ccccc3)c(=O)oc2c1)NCC1CCC(C(=O)O)CC1 (stereo unspecified)	·	19%	-4.0	-1.1%	-15%	4.0%	-1.9
O=C(CCc1ccccc1)NNC(=O)c1ccccc1F	-45%[inhibitor]	14%	-4.0	1.5%	9%	0.5%	-2.2
N#CC1=C(N)OC2=C(C(=O)CCC2)C1c1ccc2c(c1)OCO2 (stereo unspecified)	-54%[inhibitor]	-1%	-5.9	-0.6%	-8%	-1.4%	5.2
CCc1nc2ccccc2c(=O)n1NC(=O)c1c(O)c2cccc3c2n(c1=O)CCC3	-2%	7%	-1.0	-0.6%	-1%	-1.9%	1.7
C[C@H](NC(=O)c1nc[nH]c1C(=O)NCc1ccc(CNC(=O)OC(C)(C)C)cc1)C(=O)OC(C)(C)C	-6%	-13%	-4.7	6.3%	-2%	-0.5%	2.8
OCCN1C2=NCCCN2c2ccccc21	-76%[inhibitor]	11%	1.0	-0.7%	14%	·	0.2
CC1CC(C)CN(S(=O)(=O)c2cccc3cccnc23)C1 (stereo unspecified)	4%	-6%	-3.4	3.0%	-12%	1.7%	-0.6
Cc1noc(NC(=O)c2cccc(Cl)c2Cl)c1C#N	-4%	-5%	-0.3	2.8%	-15%	-0.8%	-0.6
COc1ccccc1S(=O)(=O)Cc1ccc(C(=O)N2CCOCC2)o1	-24%	15%	-3.7	-0.1%	8%	-0.3%	1.0
COc1ccc(/C=C2/C(=O)ON=C2c2ccccc2)cc1OC	1%	35µM*	-1.0	-0.4%	23%	-1.3%	2.2
COc1ccccc1NC(=S)NN=C(C)c1ccccn1	-74%	·	-2.4	7.1%	3%	-4.3%	·
Cc1ccc(/C=N/Nc2nc(Cl)c(Cl)cc2Cl)s1	-24%	22%	-4.5	-0.6%	-8%	-1.3%	-2.1
COc1ccc(Cl)cc1-n1c(C)cc(C(=O)O)c1C	-14%	15%	-3.1	1.8%	5%	0.7%	1.7
c1ccc(-c2csc(Nc3ccc4c(c3)OCO4)n2)cc1	·	·	4.4	1.6%	·	-2.0%	·
C/C(=N\N1CCN(Cc2ccc(Cl)cc2)CC1)c1ccc(F)cc1	-38%[inhibitor]	0%	-0.9	?	-7%	·	-2.7
COc1cc(C2=CN(Cc3ccccc3)CCC2=O)cc(OC)c1OC	-9%	·	-0.8	-0.3%	5%	0.8%	·
CCOC(=O)C1(Cc2ccccc2Cl)CCN(Cc2csc(C(C)=O)c2)CC1	-35%[inhibitor]	-2%	-1.5	0.4%	3%	·	5.7
CCn1c(SCC(=O)N2CCc3ccccc32)nnc1-c1c[nH]c2ccccc12	-34%[inhibitor]	-11%	-2.6	9.2%	-23%	1.8%	-2.3
CCN(CC)C(=O)c1[nH]cnc1C(=O)Nc1ccc(Cl)cc1	12%	·	-3.3	0.6%	2%	-0.3%	·
O=C(NCc1ccco1)C1CC(=O)N(c2ccc(Cl)cc2)C1 (stereo unspecified)	-5%[15.4 µM]	11%	-0.6	0.5%	12%	·	1.9
CC(=O)N1CCC(=NNS(=O)(=O)c2ccc(C)c([N+](=O)[O-])c2)CC1	-19%	1%	-3.0	-1.4%	-1%	0.6%	-0.7
COc1cccc(CNC(=O)Cc2nc3nc(C)cc(C)n3n2)c1	-1%[15.4 µM]	22%	-4.2	-1.6%	17%	2.7%	3.4
O=[N+]([O-])c1ccc(N2CCN(c3ccc(Cl)nn3)CC2)cc1NC1CC1	2%	·	0.4	?	-2%	-2.8%	·
COc1ccc(C(=O)Nc2ccccc2C(=O)N/N=C/c2ccco2)cc1	0%	1%	-1.1	0.1%	?	-2.3%	1.7
C=CCn1c(-c2ccoc2C)n[nH]c1=S	24%	4%	-2.3	-6.7%[38.3 µM]	9%	-1.2%	2.0
CCCCNC(=O)c1ccc2nc(-c3ccco3)c(-c3ccco3)nc2c1	10%	32µM*	6.9	-0.8%	-2%	-6.5%	3.9
O=C(CSc1ccc([N+](=O)[O-])cn1)Nc1ccccc1N1CCOCC1	-33%	6%	-1.1	-1.8%	-7%	-3.9%	·
COc1ccc(CNC(C)C23CC4CC(CC(C4)C2)C3)c(OC)c1OC (stereo unspecified)	-1%	9%	-3.4	1.1%	-9%	-1.8%	-7.0
COCCCNC(=O)COc1ccc(-c2nccc(-c3ccccn3)n2)cc1	?	5%	4.5	-1.0%	-10%	-3.2%	-2.3
S=C(NCCCc1ccccc1)Nc1ccccc1	0%	10%	-1.3	0.5%	10%	0.2%	·

Structural class: the compounds so far with two or more sulfur atoms (2)
SMILES	gsp agonist	Sfp inh	D2 ag	PINK1 modulator	gsp antag	ClpP mod	Menin-MLL FL inh
CCC(=O)Nc1nnc(CSCc2ccc(F)cc2)s1	0%	-7%	-4.8	3.9%	3%	-2.4%	1.0
NNC(=S)Nc1ccc(S(=O)(=O)N2CCOCC2)cc1	-11%	-10%	7.6	-0.7%	-3%	-7.5%	4.0

(list continues)
SMILES	gsp agonist	Sfp inh	D2 ag	PINK1 modulator	gsp antag	ClpP mod	Menin-MLL FL inh
NC(=O)C1CCN(C(=O)CN2C(=O)c3ccccc3S2(=O)=O)CC1	-3%	28%	-1.8	-2.7%[38.3 µM]	10%	0.1%	-0.8
Cc1nc(SCC(=O)NC2CCCCC2)[nH]c(=O)c1C	-3%[15.4 µM]	7%	-3.8	-1.3%	10%	·	-0.7
c1cncc(CNC2CCCc3ccccc32)c1 (stereo unspecified)	7%	-3%	-2.8	0.6%[38.3 µM]	5%	-1.1%	1.1
CCC(C)[C@H](NC(=O)NCc1ccc(Cl)cc1)C(=O)O (stereo partly specified)	?	7%	1.3	-0.6%	9%	3.1%	1.4
CCOC(=O)C1(CCOc2ccccc2)CCN(Cc2cccc(OC)c2)CC1	-36%[inhibitor]	·	0.1	?	-6%	-2.1%	·

3 structures already listed, arranged by SMILES length, rising.
SMILES	gsp agonist	Sfp inh	D2 ag	PINK1 modulator	gsp antag	ClpP mod	Menin-MLL FL inh
S=C(NCCCc1ccccc1)Nc1ccccc1	0%	10%	-1.3	0.5%	10%	0.2%	·
Cc1nc(SCC(=O)NC2CCCCC2)[nH]c(=O)c1C	-3%[15.4 µM]	7%	-3.8	-1.3%	10%	·	-0.7
CCOC(=O)C1(CCOc2ccccc2)CCN(Cc2cccc(OC)c2)CC1	-36%[inhibitor]	·	0.1	?	-6%	-2.1%	·

Source: PubChem
